Screening results as filed in PubChem.
ugtP null kill = compounds lethal to S. aureus RN4220 ugtP deletion mutant; AID 1259309; hit rate 0.54% among 330,000; growth inhibition, % (no concentration beside the values); OD600 growth, 16 h; some inactives read as strong as hits;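 active means z-score under -3 and OD600 up to 0.15 on both plates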;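 further: plate controls were untreated wells for no effect and antibiotic for full effect; wells of about 80 µL received 100 nL stock; the first replicate is given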
PrP UTR inh = suppresses PrP 5' UTR mRNA reporter expression. cell-based PrP 5' UTR mRNA reporter, plate reader. inhibition, % (concentration not given with the values). hit rate 0.35% among 340,000. AID 488862;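 active means every replicate at 50% or more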;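 further: 0 = median of the neutral control wells; tested in H4 reporter cells; numbers are from one replicate; inactives centre near -14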
Sa RN4220 lethal = S. aureus RN4220 growth inhibition; inhibition, % (no concentration beside the values); OD600, 16 h; hit rate 0.33% among 330,000;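 active means z-score of -3 or lower and OD600 up to 0.18 on both plates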;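 further: plate controls were untreated cells for no effect and reference antibiotic for full effect; stock transfer was 100 nL into about 80 µL; one replicate is shown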
Mtb hypoxia rep = inhibitors of hypoxia-regulated fluorescent reporter in Mycobacterium tuberculosis. M. tuberculosis hypoxia-regulated fluorescent reporter, fluorescence. fluorescence inhibition, % (concentration not given with the values). hit rate 0.1% among 300,000. AID 1159583;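 active means 35 to 45% if threefold the growth effect, above 45% if 1.5-fold the growth effect; inactive means the rest, general growth blockers included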;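 further: wells of about 50 µL received 100 nL stock; 0% = vehicle wells and 100% = reference inhibitor wells; whole bacteria with a GFP reporter of the hypoxia response; strong numbers were not always called active; many hits fall short of the cut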
BJeLR lethal = kills HRASV12-expressing BJeLR cells. AID 1554. BJeLR (HRASV12) viability, CellTiter-Glo ATP luminescence, 48 h; reference of the scale not given here. inhibition, % (concentration not given with the values). hit rate 0.17% among 300,000;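 active means replicate mean above 50%; inconclusive means above 50% but judged a plate artefact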;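 further: 50 nL library stock added to about 25 µL; numbers are from one replicate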
Autofluor counter = compound fluorescence in toxin protease inhibitor counterscreen | compound autofluorescence counterscreen, microsphere flow cytometry; stronger effect = higher value | fluorescence intensity (no concentration beside the values) | hit rate 3.1% among 360,000 | AID 624483;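 active means at least 3 SD above the mean of all compounds, about 16000 in these data; inconclusive means too few beads counted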;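 further: 100 nL of 1 mM stock went into each well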
Mtb hypoxia rep growth = also measured in Mtb hypoxia rep; calls as there; growth inhibition, %; measured here: M. tuberculosis growth (absorbance);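 0% = vehicle and 100% = reference antibiotic; read after six days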
Numbers without * were called inactive; ? = inconclusive; / = no result given; & = joins results of further samples.

item	Compound	ugtP null kill	PrP UTR inh	Sa RN4220 lethal	Mtb hypoxia rep
1	COC(=O)c1ccc(CN2C(=O)C3CCCCC3C2=O)o1 (stereo not drawn)	7	-18	5.8	14
2	Cc1ccc(NC(=O)CN(C)CC(=O)NC2CCCc3ccccc32)cc1 (stereo not drawn)	-4	-17	-2.1	-11
3	NS(=O)(=O)c1cccc(NC(=O)COC(=O)Cn2cnc3ccccc32)c1	6	-38	8.0	6
4	CCc1ccc(-c2cc(C)no2)cc1S(=O)(=O)NC(C)Cc1ccco1 (stereo not drawn)	-5	-13	4.9	13
5	CN(CC(=O)Nc1ccc(F)cc1[N+](=O)[O-])C1CCS(=O)(=O)C1 (stereo not drawn)	4	-20	9.4	10
6	C[C@@H](CO)NC(=O)c1ccc2c3n(nc2c1)-c1ccccc1CO3	/	6	/	/
7	Cc1nnc2ccc(-c3cccc(NC(=O)c4ccc(Br)o4)c3)nn12	11	-17	7.1	1
8	CCOC(=O)c1ccc(N=Cc2c(O)n(-c3ccccc3F)c(=S)[nH]c2=O)cc1	1	-28	6.7	6
9	COc1ccc(C(=O)c2ccc(OC)c(OC)c2)cc1	0	-22	7.7	3
10	Cc1cccn2c(=O)c3cc(C#N)c(=O)n(CCCN4CCOCC4)c3nc12	-9	-22	2.5	11

item	Mtb hypoxia rep growth	BJeLR lethal	Autofluor counter
1	0	-5	4055
2	-2	-4	5521
3	9	0	4105
4	4	3	5800
5	3	/	?
6	/	10	3210
7	-5	3	6083
8	6	1	10675
9	14	4	11605
10	-1	-13	10441

(next part)
item	Compound	ugtP null kill	PrP UTR inh	Sa RN4220 lethal	Mtb hypoxia rep
11	COc1cc(=O)n(C)c2ccccc12	12	-12	5.3	-1
12	CCOC(=O)C(Cc1ccc(NC(C)=O)cc1)N1C(=O)c2ccccc2C1=O (stereo not drawn)	4	-14	4.1	11
13	CCN(CC)S(=O)(=O)c1ccc(NS(=O)(=O)c2cccc(C)c2)cc1	2	-8	6.3	20
14	CC(=O)n1cc(C2C=C(C(=O)N3CCN(Cc4ccc5c(c4)OCO5)CC3)OC(OCCCCO)C2)c2ccccc21 (stereo not drawn)	-19	/	2.5	8
15	O=C(CN1CCN(C/C=C/c2ccccc2)CC1)Nc1ccc(F)cc1F	3	4	3.3	19
16	CCCCN(C(=O)CN1C(=O)C2CCCCC2C1=O)c1c(N)n(Cc2ccccc2)c(=O)[nH]c1=O (stereo not drawn)	-1	-5	1.8	1
17	COc1ccc(/C=C(\C#N)C(=O)OCCNC(=O)c2ccncc2)cc1	6	-4	3.5	-1
18	Cc1ccc(C(C)C)cc1S(=O)(=O)Nc1cccnc1	2	-16	7.0	13
19	COC(=O)C1=C(C)N(Cc2ccccc2)C(=NCCN2CCOCC2)NC1CCc1ccccc1 (stereo not drawn)	2	/	4.4	-5
20	CCN(CC)CCNC(=O)c1ccc(NC2=NC3CS(=O)(=O)CC3S2)cc1 (stereo not drawn)	4	-18	7.6	3

item	Mtb hypoxia rep growth	BJeLR lethal	Autofluor counter
11	-6	-2	4241
12	12	/	3410
13	18	-1	3977
14	7	/	/
15	7	2	4559
16	-5	8	?
17	3	-8	2560
18	6	-3	3858
19	8	/	/
20	1	14	6080

Single records, as listed above. Order of screens: ugtP null kill	PrP UTR inh	Sa RN4220 lethal	Mtb hypoxia rep	Mtb hypoxia rep growth	BJeLR lethal	Autofluor counter
Cc1ccc(C(C)C)cc1S(=O)(=O)Nc1cccnc1 reads 2	-16	7.0	13	6	-3	3858
COc1cc(=O)n(C)c2ccccc12 reads 12	-12	5.3	-1	-6	-2	4241

Later entries:
item	Compound	ugtP null kill	PrP UTR inh	Sa RN4220 lethal	Mtb hypoxia rep
21	CC(C)(C)c1ccc(-c2nc(-c3ccncc3)no2)cc1	-14	-9	-0.5	-2
22	COCCNC(=O)CCN1N=C(c2ccccc2)CCC1=O	6	-19	1.9	0
23	COc1ccc(C(=O)NC(=S)N2CCN(c3ccccc3OC)CC2)cc1OC	5	7	-1.5	3
24	CCCc1cc(=O)oc2cc(C)cc(OCC(=O)NC3CCN(Cc4ccccc4)CC3)c12	-10	4	-8.1	-6
25	O=C(NNC(=O)c1ccc(Cl)c(S(=O)(=O)Nc2ccc(Cl)cc2)c1)c1ccc(=O)[nH]c1	7	-3	4.4	-2
26	COc1cc(NC(=O)COC(=O)CNC(=O)c2cc(C)cc(C)c2)c(C)cc1[N+](=O)[O-]	14	-5	1.1	10
27	Cc1sc2c(c1C)C(=O)/C(=C\Nc1ccccn1)S(=O)(=O)N2C	2	-18	7.2	12
28	CCC(C(=O)NCCc1ccc(OC)c(OC)c1)n1nc(C)n2c(cc3occc32)c1=O (stereo not drawn)	1	-22	3.5	10
29	COC(=O)c1ccc2nc(C(F)(F)F)[nH]c2c1	-2	-23	6.0	14
30	CC(=NNC(=O)C(=O)NN=C(C)c1cccc(O)c1)c1cccc(O)c1	9	/	5.9	6

item	Mtb hypoxia rep growth	BJeLR lethal	Autofluor counter
21	1	6	9694
22	-4	-3	3742
23	1	-2	6228
24	-4	-2	4828
25	7	-4	?
26	0	5	2425
27	7	-5	3191
28	6	-7	5185
29	14	0	2512
30	1	/	/

Further records follow:
item	Compound	ugtP null kill	PrP UTR inh	Sa RN4220 lethal	Mtb hypoxia rep
31	COc1ccc(CC(=O)N2CCOCC2)cc1	3	-4	-7.4	10
32	CC1CC(C)(C)NC(=S)O1 (stereo not drawn)	2&14	-26&-9	0.7&4.0	4&9
33	NC(=O)CC(NC(=O)Cc1ccc(Br)cc1)c1ccc(N2CCN(c3ccccc3)CC2)c([N+](=O)[O-])c1 (stereo not drawn)	/	-18	/	/
34	O=C(c1ccco1)c1cc2c(ccc3ccccc32)oc1=O	-2	-25	7.3	2
35	Cc1ccc(-n2nnnc2-c2ccccc2)cc1	1	-25	1.4	-4
36	CC/C(=N/N=C(/CC)c1ccc(O)cc1)c1ccc(O)cc1	/	-20	/	/
37	COc1ccc(NC(=O)CN2C(=O)COc3ccc(S(=O)(=O)N4CCOCC4)cc32)c(OC)c1	2	-5	0.0	4
38	Cn1cncc1C#Cc1c(C=O)n(C)c2ccccc12	-4	-10	16	0
39	C/C=C/c1ccc(OCC(=O)OCC2=C(C(=O)OCC)C(C)NC(=O)N2)c(OC)c1 (stereo not drawn)	6	3	5.9	-1
40	COCOC=C(NC(C)=O)c1ccccc1	7	/	4.0	3

item	Mtb hypoxia rep growth	BJeLR lethal	Autofluor counter
31	1	-3	2531
32	2&10	0&5	3160&3821
33	/	-3	3499
34	2	-4	22410*
35	-2	-8	4186
36	/	5	4703
37	-5	-1	5185
38	9	/	3562
39	-7	7	/
40	7	/	/

Remaining list, next part
item	Compound	ugtP null kill	PrP UTR inh	Sa RN4220 lethal	Mtb hypoxia rep
41	Cc1ccc(C)c(N(CC(=O)NCc2ccc3c(c2)OCO3)C(=O)CCC(=O)Nc2ccccn2)c1	-5	-4	1.6	/
42	c1ccc(-c2nc(-c3cccs3)[nH]c2-c2ccccc2)cc1	4	-7	-3.2	-2
43	C=CCNC(=S)Nc1cccc2ccccc12	6	-26	6.2	16
44	COC(=O)COc1ccc(NC(=O)Cn2nc(-c3ccccc3)c3ccccc3c2=O)cc1	8	2	2.4	/
45	O=C(CN1CCN(CC(=O)Nc2ccccn2)CC1)Nc1ccccn1	-5	-14	-8.6	17
46	Cc1ccnc2nc(C(=O)OC(C)C(=O)NCc3ccccc3)nn12 (stereo not drawn)	-5	-24	3.0	20
47	Nc1nonc1-n1nnc(C(=O)NN=Cc2ccccc2Br)c1CN1CCCC1	7	/	9.4	-8
48	CN(C)CCCn1c(=S)[nH]c2ccccc2c1=O	3	-12	6.3	3
49	CSc1nc(Nc2ccc(Cl)cc2)c(C#N)c(=O)[nH]1	7	-16	0.1	6
50	Cn1c(C(=O)Nc2ccc(Cl)cc2)cc2cc(Cl)ccc21	-4	-12	3.4	-7

item	Mtb hypoxia rep growth	BJeLR lethal	Autofluor counter
41	/	-10	2618
42	2	-1	11027
43	11	-5	9393
44	/	1	4675
45	10	-4	2916
46	8	/	3925
47	-2	/	/
48	-1	3	2011
49	8	4	3105
50	2	9	3778

New compounds follow.
item	Compound	ugtP null kill	PrP UTR inh	Sa RN4220 lethal	Mtb hypoxia rep
51	CCN(CC)S(=O)(=O)c1cccc(S(=O)(=O)N2CCCCC2)c1	0	-26	8.7	10
52	Cc1ccsc1C(C(=O)NC(C)(C)C)N(C(=O)c1csnn1)c1ccccc1 (stereo not drawn)	9	-9	5.1	-2
53	O=C(NCCc1ccc(F)cc1)c1cccs1	-2	-79	-9.7	16
54	Nc1nc(-c2ccco2)c(-c2ccco2)s1	-2	-12	1.4	/
55	O=C(CN(C(=O)Cn1nnc(-c2cccs2)n1)c1ccc2c(c1)OCCO2)NCC1CCCO1 (stereo not drawn)	-8	-9	-2.6	-3
56	CC(C)(C)c1ccc(S(=O)(=O)C(C)(C)C)cc1	7	-44	10	13
57	O=C(O)c1ccc2nnn(O)c2c1	-2	-5	3.1	12
58	O=c1[nH]n2c(=O)c3c([nH]c2c1N=Nc1ccccc1)CCC3	-9	-16	6.3	16
59	COc1ccc(NC(=O)CSc2nnc(-c3cccs3)n2C)cc1OC	1	-16	2.5	9
60	NC(=O)c1cc(S(=O)(=O)NCc2cccc(Br)c2)cs1	8	-23	3.1	4

item	Mtb hypoxia rep growth	BJeLR lethal	Autofluor counter
51	1	-8	5442
52	3	1	4442
53	7	-4	2607
54	/	-7	2670
55	1	1	8761
56	-1	-1	3885
57	16	2	4850
58	6	-2	11011
59	4	2	?
60	6	-3	5322

Later entries.
item	Compound	ugtP null kill	PrP UTR inh	Sa RN4220 lethal	Mtb hypoxia rep
61	Cc1cc(C)n2nc(SCCC(=O)NCCc3ccccc3)nc2n1	5	-2	5.7	1
62	Cc1cc(NC(=O)C2CCCCC2)nc2c1c(=O)oc1ccccc12	-13	-22	-6.8	/
63	Cc1ccc(NC(=O)COC(=O)CN2C(=O)C3CCCCC3C2=O)cc1C (stereo not drawn)	0	-12	-1.2	2
64	Cc1ccc(Cl)cc1NC(=O)c1cc2ccccc2cc1O	/	-48	/	/
65	Cc1ccccc1NC(=O)C1Cc2ccccc2CN1C(=O)OCc1ccccc1 (stereo not drawn)	4	-21	5.3	1
66	CC(CC(C)(C)c1ccccc1)=NNS(=O)(=O)c1ccccc1	12	/	8.2	0
67	O=C(NC1CCCCC1)C(c1ccccn1)N(C(=O)c1csnn1)c1ccccc1F (stereo not drawn)	5	-13	2.4	-3
68	Cc1csc(NN=Cc2ccc(O)c([N+](=O)[O-])c2)n1	-18	/	9.7	14
69	CCCCn1c(O)c(C(CC)=Nc2ccc(C(=O)O)cc2)c(=O)[nH]c1=O	10	-10	5.7	1
70	Cc1cccc(C)c1NC(=O)C(C)Sc1n[nH]c(-c2ccncc2)n1 (stereo not drawn)	0	-27	3.1	6

item	Mtb hypoxia rep growth	BJeLR lethal	Autofluor counter
61	-2	-6	18555*
62	/	-1	2747
63	0	/	7194
64	/	19	4377
65	1	1	2566
66	-3	/	/
67	5	-3	3740
68	21	/	/
69	10	0	8172
70	0	1	5013

Some of the entries so far, with values under each structure.
Under each structure – ugtP null kill	PrP UTR inh	Sa RN4220 lethal	Mtb hypoxia rep	Mtb hypoxia rep growth	BJeLR lethal	Autofluor counter
[41] Cc1ccc(C)c(N(CC(=O)NCc2ccc3c(c2)OCO3)C(=O)CCC(=O)Nc2ccccn2)c1
  -5	-4	1.6	/	/	-10	2618
[42] c1ccc(-c2nc(-c3cccs3)[nH]c2-c2ccccc2)cc1
  4	-7	-3.2	-2	2	-1	11027

Single entries from above:
Entry of no. 67 in ugtP null kill: 5
Entry of no. 68 in ugtP null kill: -18
Entry of no. 64 in PrP UTR inh: -48

(cont.)
item	Compound	ugtP null kill	PrP UTR inh	Sa RN4220 lethal	Mtb hypoxia rep
71	Cc1nn(-c2ccccc2)c(C)c1-c1cc(C(=O)NN=Cc2cccnc2)[nH]n1	2	/	6.4	12
72	COc1ccc(NC(=O)/C=C2\SC(=O)NC2=O)cc1	4	-9	3.1	1
73	CC(C)CNC(=S)Nc1ccccc1F	3	-6	4.4	11
74	Cc1cccc(C)c1NC(=O)CNC(=O)c1ccc2nc[nH]c2c1	11	-13	1.5	3
75	Cc1ccc(-c2noc(C3CCCN(C(=O)c4c(F)cccc4F)C3)n2)cc1 (stereo not drawn)	17	-14	4.5	5
76	CON(C)c1nc(OCCNC(=O)COc2ccc(Cl)cc2C)nc(N(C)C)n1	2	-8	7.6	/

item	Mtb hypoxia rep growth	BJeLR lethal	Autofluor counter
71	13	/	/
72	4	-4	4352
73	2	-20	2777
74	-3	-7	4514
75	7	-1	21313*
76	/	-1	3346
